Bioassay records (PubChem BioAssay)
Vaccinia Venus – vaccinia inhibition (Venus reporter). Potency, µM (highest dose often 36.5 µM), for the others: at the highest dose activity change, negative = inhibition, actives largely listed as inhibitors. Vaccinia virus Venus reporter expression, fluorescence. 0.46% of 330,000 active; active means well fitted inhibition curve with a large enough effect; inconclusive means small, poorly fitted or top-dose-only effect; inactive means no such curve, though single readings can be large or run the other way; tested in A549 cells; further: nearly all actives have a fitted effect of over 30% in size; inactives centre near -10
VACV mCherry inh – inhibitors of vaccinia virus infection (mCherry reporter signal); Vaccinia virus mCherry reporter infection, fluorescence; about a quarter of the inactives have no number; Potency, µM (top dose mostly 36.5 µM), inactives show at the highest dose activity change, negative = inhibition, usual class: inhibitors; 0.63% of 310,000 active; active = well fitted inhibition curve with a large enough effect; inconclusive = small, poorly fitted or top-dose-only effect; inactive = no such curve, though single readings can be large or run the other way; tested in A549 cells; further: nearly all actives have a fitted effect of over 35% in size; inactives centre near -10
Numbers without * were called inactive; i = inactive; u = inconclusive; x = no result given; [ ] = remark or other dose. On the % scale 0 is the no-effect control and ±100 the full control effect; potency means the concentration at half of the fitted maximal effect. No enrichment for hits, and some 0.87% of all compounds hit somewhere here.

No.	SMILES	Vaccinia Venus	VACV mCherry inh
1	CN(C)S(=O)(=O)c1ccc(Cl)c(C(=O)NC2CCCCCCC2)c1	-10%	-14%
2	Cc1cc(C=C2C(=O)c3ccccc3C2=O)c(C)n1C	-4%	-19%
3	Cc1nc(CNS(=O)(=O)c2ccccc2F)cs1	-7%	i
4	Cc1cc(C)nc(N/N=C/C2=C(N3CCOCC3)C(=C\c3ccc(Cl)cc3)/CC2)n1	3%	-26%
5	Cc1ccc(-c2nc3ccccc3[nH]2)cc1NC(=O)c1sc2cc(Cl)ccc2c1Cl	-4%	49%[activator]
6	OC(c1cccc(CN2CCCCC2)c1)c1ncc(-c2cccc(C(F)(F)F)c2)[nH]1 (stereo not drawn)	-18%	8%
7	CC(=O)c1c(C)[nH]c(C(=O)N(C)CC(=O)Nc2ccc(Cl)c(C(F)(F)F)c2)c1C	-11%	-10%
8	CC(=O)Nc1ccc(NS(=O)(=O)c2ccc3[nH]c(=O)[nH]c3c2)cc1	-19%	i
9	CCOC(=O)c1noc(C)c1C(=O)Nc1cccc(F)c1	-15%	-16%
10	CC1(C)CN=C(c2ccccc2)NC1	0%	i
11	CC(=O)c1ccc(-c2ccc(C(=O)NC3CC(C)(C)NC(C)(C)C3)o2)cc1	-19%	-27%
12	CCC(Sc1nc(-c2ccccc2)c(C#N)c(=O)[nH]1)C(=O)Nc1nnc(C)s1 (stereo not drawn)	-8%	-12%
13	O=C(CN1CCOCC1)N/N=C/C=C/c1ccccc1	3%	-6%
14	O=C(O)c1cccc(N=NN2CCOCC2)c1	-10%	4%
15	Nc1nc(=S)[nH]c2c1C1(CCCC1)Cc1ccccc1-2	-22%	-20%
16	CCC1(CC)NC(=O)N(CC(=O)OCC(=O)NC(=O)c2ccccc2)C1=O	-2%	-13%
17	COC(=O)c1ccc(Cn2nc(C)c(Br)c2C)cc1	-6%	i
18	CCOc1ccccc1N(CC(=O)N(C)Cc1ccccc1)S(=O)(=O)c1ccccc1	-13%	i
19	COc1ccccc1N(C)S(=O)(=O)c1ccc(C(=O)OCC(=O)N2CCCCCC2)cc1	-1%	0%
20	Cc1cc(C(=O)N2CCC2(C)C(=O)NCC(C)(C)C)nn1C (stereo not drawn)	8%	-5%
21	CC(=O)c1cccc(NC(=O)COC(=O)Cc2ccc(Cl)cc2)c1	-13%	i
22	O=C1N/C(=N/N=C/c2ccccc2)SC1(c1ccccc1)c1ccccc1	-8%	-14%
23	O=C1CCc2cc(S(=O)(=O)NC(C(=O)NCc3cccnc3)c3ccccc3)ccc2N1 (stereo not drawn)	-11%	i
24	CCN(CC)S(=O)(=O)c1ccc(OC)c(NC(=O)c2ccc3c(c2)OCO3)c1	4%	-1%
25	COc1ccc2c(c1OC)C(=O)OC2N1C(=O)CC[C@H]1C(=O)Nc1ccc(F)cc1F (stereo partly drawn)	1%	4%
26	CCC1(c2ccc(F)cc2)NC(=O)N(CC(=O)Nc2ccc(C)c(S(=O)(=O)N3CCOCC3)c2)C1=O (stereo not drawn)	-14%	-3%
27	Cc1cc(-c2ccccc2)nc(N(C)NC(=O)c2c(F)cccc2F)c1S(C)(=O)=O	-5%	x
28	CCC(NC(=O)COc1cc2c(c3oc(=O)c(C)c(C)c13)CCC(C)(C)O2)C(=O)O (stereo not drawn)	-7%	0%
29	Cc1cc(C)n(-c2cc(C(C)(C)C)nc3c(-c4ccccc4)cnn23)n1	-9%	i
30	O=C(OCCOc1ccc(Br)cc1)c1ccc(Cl)nc1	-9%	i
31	COCCCNC(=O)C1CCN(c2ncnc3c2nc2n3CCCCC2)CC1	-7%	i
32	O=S(=O)(c1ccc(Br)s1)N1CCCCC1	-16%	-14%
33	Cc1cc[n+](Cc2ccccc2)c(N)c1	-3%	-17%
34	CC(C)(C)NS(=O)(=O)c1ccc(Oc2ncc(C(F)(F)F)cc2Cl)cc1	u	u
35	CC(C)CN(C(=O)CN1CCN(c2ccccc2F)CC1)c1c(N)n(CC(C)C)c(=O)[nH]c1=O	-10%	i
36	Cc1c(C(=O)NCC(c2ccco2)N2CCCC2)oc2ccc(Cl)cc12 (stereo not drawn)	-25%[7.34 µM]	-1%[7.34 µM]
37	C/C(=N\NC(=O)CC1N=C(Cc2ccccc2)NNC1=O)c1ccc(Cl)cc1Cl (stereo not drawn)	-15%	-6%
38	O=c1ccc2ccccc2c2ccccc12	-5%	10%
39	O=C(CSc1nc2ccccc2[nH]1)N=Nc1c(O)[nH]c2ccccc12	-12%	i
40	Cc1ccc(N2CCN(S(=O)(=O)c3cc(C(=O)Nc4cc(Cl)cc(Cl)c4)ccc3F)CC2C)cc1 (stereo not drawn)	-6%	-9%
41	COc1ccc(NC(=S)NCCSc2ccc(Cl)cc2)c(OC)c1	-27%	u
42	O=C(c1ccc(-c2cccc(C(F)(F)F)c2)o1)N1CCCC(C(F)(F)F)C1 (stereo not drawn)	-11%	-24%
43	COC(=O)c1cc(NC(=O)Nc2ccc3snnc3c2)cc(C(=O)OC)c1	-3%	-6%
44	Cc1cc(C)nc(NC(=O)c2c(-c3ccccc3Cl)noc2C)c1	-15%	-12%
45	CCOc1ccccc1NC(=O)c1ccc2c(=O)n3c(nc2c1)CCCCC3	-5%[7.34 µM]	-9%[7.34 µM]
46	COc1ccc(C2=NN(CC(=O)NCCCN(C)c3ccccc3)C(=O)CC2)cc1	-14%	-26%
47	O=C1c2ccccc2NC(c2cccc(F)c2)N1Cc1ccco1 (stereo not drawn)	-12%	-8%
48	COc1cccc2sc3ccc(NCCC4CCCN4C)cc3c(=O)c12 (stereo not drawn)	-12%	-39%
49	CCc1nn(CC(=O)NCCCN(CC)Cc2ccccc2)c(=O)c2cc3sccc3n12	-18%	-23%
50	Cc1ccc(C(C(=O)NC(C)(C)C)N(CC2CCCO2)C(=O)c2csnn2)cc1 (stereo not drawn)	-1%	i
51	CCOCCCNc1nc2c(S(=O)(=O)c3ccc(CC)cc3)nnn2c2ccc(Cl)cc12	-13%	-12%
52	NC(=O)CC(NC(=O)c1ccccc1)c1ccc(NCCc2ccc(F)cc2)c([N+](=O)[O-])c1 (stereo not drawn)	u	-5%
53	CCC(=O)Nc1ccc(C(=O)NNC(=O)C(c2ccccc2)c2ccccc2)cc1	-2%	-9%
54	O=C(Nc1oc2ccccc2c(=O)c1-c1ccc2c(c1)OCO2)c1ccco1	-16%	u
55	CCC(C)NC(=O)Cn1nc(C(F)(F)F)c2c1CCC2 (stereo not drawn)	-6%	i
56	S=C(Nc1ccccc1)Nc1cc(Cl)ccc1Oc1ccccc1	-28%	-29%
57	O=C1C2C3C=CC(C3)C2C(=O)N1c1ccc(Cc2ccncc2)cc1 (stereo not drawn)	-25%	-3%
58	COc1ccccc1CCNC(=O)C(=O)NCC(c1ccc2c(c1)OCO2)N1CCOCC1 (stereo not drawn)	-5%	3%
59	COc1ccc(-c2[nH]c(-c3ccc(OC)c(OC)c3)nc2SCC(=O)Nc2ccccc2)cc1	-14%	-14%
60	COc1ccc(OC)c(CNC(=O)c2cc3c(=O)oc4ccc(C)cc4c3s2)c1	-9%	-8%

The final seven records of the section before come first, to join the parts:
No.	SMILES	Vaccinia Venus	VACV mCherry inh
54	O=C(Nc1oc2ccccc2c(=O)c1-c1ccc2c(c1)OCO2)c1ccco1	-16%	u
55	CCC(C)NC(=O)Cn1nc(C(F)(F)F)c2c1CCC2 (stereo not drawn)	-6%	i
56	S=C(Nc1ccccc1)Nc1cc(Cl)ccc1Oc1ccccc1	-28%	-29%
57	O=C1C2C3C=CC(C3)C2C(=O)N1c1ccc(Cc2ccncc2)cc1 (stereo not drawn)	-25%	-3%
58	COc1ccccc1CCNC(=O)C(=O)NCC(c1ccc2c(c1)OCO2)N1CCOCC1 (stereo not drawn)	-5%	3%
59	COc1ccc(-c2[nH]c(-c3ccc(OC)c(OC)c3)nc2SCC(=O)Nc2ccccc2)cc1	-14%	-14%
60	COc1ccc(OC)c(CNC(=O)c2cc3c(=O)oc4ccc(C)cc4c3s2)c1	-9%	-8%
61	CCOc1c(Cl)cc(/C=C/C(=O)N(CC)CC(=O)Nc2ccc(NC(C)=O)cc2)cc1OC	-26%	-11%
62	CC(C)c1ccc(/C=N/n2c(COc3ccccc3)n[nH]c2=S)cc1	-6%	i
63	C=C(Cl)COC(=O)[C@H]1C2C=CC(C2)C1C(=O)O (stereo partly drawn)	-4%	-3%
64	CC12CCC(=O)C=C1CCC1C2CCC2(C)C1CC1C3C(=O)N(Cc4ccccc4)C(=O)C3CC(=O)C12 (stereo not drawn)	-3%	i
65	CC1CCCC(C)N1C(=O)C1CCCCC1 (stereo not drawn)	-5%	-13%
66	O=C(Nc1cccnc1Cl)C1c2ccccc2Oc2ccccc21	u	x
67	O=C(c1ccc(Br)cc1)c1cn[nH]c1-c1ccccc1O	-7%	i
68	CCC(Sc1nncn1C)C(=O)Nc1cc(C)on1 (stereo not drawn)	-3%	i
69	Cc1cc2cc(C)c3nnc(SCC(=O)N4CCN(C(=O)c5ccco5)CC4)n3c2cc1C	-27%	-13%
70	O=C(CN1CCCCCC1)Nc1ccccc1OC(F)F	-18%	2%
71	O=C(NCC(=O)N(Cc1cccs1)C(C(=O)NC1CCCCC1)c1cccnc1)c1ccco1 (stereo not drawn)	29%	19%
72	COc1ccc(OCC(=O)NC(=S)N2CCCc3ccccc32)cc1	-23%	-6%
73	CCCOC(=O)C1C2C=CC3(CN(c4cccc(Cl)c4)C(=O)C13)O2 (stereo not drawn)	15%	2%
74	Cc1cc(C)cc(Cn2c(C)c(C(=O)N(C)Cc3ccc(F)cc3)sc2=O)c1	1%	27%
75	CCOC(=O)c1c(N)nn(C(=O)CC)c1-c1ccccc1	-9%	-17%
76	COc1ccc(NC(=O)c2cc(C3CCCCN3C(=O)OCC(C)C)on2)c(C)c1 (stereo not drawn)	-14%	10%
77	CCCCOc1ccccc1C1CC(=O)Nc2cc(C)c(C)cc21 (stereo not drawn)	u	u
78	CCOC(=O)C(NC(=O)Nc1ccc(F)cc1)(OCC)C(F)(F)F (stereo not drawn)	-17%	x
79	COc1ccc(C(=O)Nc2cc(OC)c(Cl)cc2OC)cc1	-8%	i
80	CCc1nnc(NC(=O)CSc2nc3cc4c(cc3cc2CC)OCCO4)s1	-12%	i
81	COC(=O)Nc1ncc(CN2CCc3ccccc3C2)s1	-11%	i
82	COc1ccc(NC(=O)CSc2nc3c([nH]c4ccccc43)c(=O)n2C)c(OC)c1	-7%	-14%
83	O=C(NCC(c1ccco1)N1CCc2ccccc2C1)c1ccc(Br)cc1 (stereo not drawn)	-8%	i
84	CCCOCc1ccc(O)c2ncccc12	u	u
85	O=C1C=C(c2ccc3ncccc3c2)C[C@@H](c2ccc(F)cc2)C1	u	u
86	COCCN(C(=O)COC(=O)CCc1nc2ccccc2s1)c1c(N)n(Cc2ccccc2)c(=O)[nH]c1=O	-8%	-8%
87	CN(c1cc2c(c3c1ccn3C)C1CCC2C1)C1CCCCC1 (stereo not drawn)	-2%	9%
88	C/C(=N\NC(=O)c1ccc(NS(=O)(=O)c2cccs2)cc1)c1ccc(Cl)cc1	-9%	-20%
89	Cn1c(=O)[nH]c(=O)c2c1nc(CN1CCOCC1)n2CCCc1ccccc1	8%	-16%
90	Cc1cc(C)cc(NC(=O)Nn2cnnc2)c1	-8%	-12%
91	O=C(O)CCC(=O)Nc1ccc(N2CCCCCC2)cc1	-8%	-13%
92	CC(Sc1nc2c(c(=O)[nH]1)CCCC2)C(=O)Nc1ccc(S(N)(=O)=O)cc1 (stereo not drawn)	4%	i
93	COC(=O)c1ccccc1N1CCS(=O)(=O)CC1	-15%	i
94	Cc1cccc(-n2c(=O)c3c(c4cc(C)ccc4n3C)n(C)c2=O)c1	2%	8%
95	Cc1ccc(C)n1-c1nnc(N2CCCC(C(=O)NCc3cccc(Cl)c3)C2)s1 (stereo not drawn)	-18%	-19%
96	CC12CCC(=O)N1C(C(=O)NCCN1C(=O)S/C(=C\c3ccc(OC(F)F)cc3)C1=O)CS2 (stereo not drawn)	u	-15%
97	CC(=O)Nc1cc(-c2cccc(F)c2)cn2c(-c3ccc(F)cc3)cnc12	-22%	u
98	Cc1ccc(C)c(N2CCN(CCCNC(=O)Nc3ccc(Cl)cc3)CC2)c1	-7%[7.34 µM]	-11%[7.34 µM]
99	N#CCCN(C(=O)COC(=O)c1ccc(S(=O)(=O)N2CCCCCC2)cc1)c1ccccc1	3%	-14%
100	O=C(O)CCc1nc2cc3ccccc3cc2[nH]1	-5%	-8%
101	CC(C)c1ccccc1OCCNC(=O)c1cccnc1	-19%	-1%
102	O=C(NCc1ccc(Cl)cc1)C1CCN(c2ncnc3c2nc2n3CCCCC2)CC1	-15%	-17%
103	CCn1c2ccccc2c2cc(NC(=O)COc3ccc(C)c(C)c3)ccc21	u	u
104	CCOC(=O)CN1C(=O)N[C@@H](CCc2ccccc2)[C@H](C(C)=O)[C@H]1C	4%	0%
105	CC(O)[C@H]1CN=C(N)N1CCCCC1CCCCC1 (stereo partly drawn)	-17%	-26%
106	O=C(OCC(=O)c1ccc[nH]1)c1ccc2ccccc2n1	-10%	-4%
107	O=C(Nc1cc(F)ccc1F)c1ccc(CN2CC(=O)N3CCCCC3C2=O)cc1 (stereo not drawn)	-18%	-16%
108	CCCC(C(=O)NCC1CCCO1)N(Cc1ccccc1)C(=O)CNS(=O)(=O)c1ccccc1 (stereo not drawn)	-2%	-5%
109	COC(=O)c1ccccc1NC(=O)C1CCN(S(=O)(=O)c2cc(C)ccc2OC)CC1	-29%	x
